# RecA intein inh = Mtb RecA intein splicing inhibitors, primary screen, biochemical, fluorescence, HTS. Protein RecA (Mycobacterium tuberculosis (strain ATCC 25618 / H37Rv)), P9WHJ3. cell-free RecA intein splicing. inhibition, %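 (about 9 µM by stock and volumes)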. actives 0.75% (n = 290,000); in the data active = inhibition above about 30%; inconclusive = no clear call, values can overlap the other calls;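 also: 0% = vehicle wells and 100% = reference inhibitor control wells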
# Target sequence (P9WHJ3 whole entry, looked up): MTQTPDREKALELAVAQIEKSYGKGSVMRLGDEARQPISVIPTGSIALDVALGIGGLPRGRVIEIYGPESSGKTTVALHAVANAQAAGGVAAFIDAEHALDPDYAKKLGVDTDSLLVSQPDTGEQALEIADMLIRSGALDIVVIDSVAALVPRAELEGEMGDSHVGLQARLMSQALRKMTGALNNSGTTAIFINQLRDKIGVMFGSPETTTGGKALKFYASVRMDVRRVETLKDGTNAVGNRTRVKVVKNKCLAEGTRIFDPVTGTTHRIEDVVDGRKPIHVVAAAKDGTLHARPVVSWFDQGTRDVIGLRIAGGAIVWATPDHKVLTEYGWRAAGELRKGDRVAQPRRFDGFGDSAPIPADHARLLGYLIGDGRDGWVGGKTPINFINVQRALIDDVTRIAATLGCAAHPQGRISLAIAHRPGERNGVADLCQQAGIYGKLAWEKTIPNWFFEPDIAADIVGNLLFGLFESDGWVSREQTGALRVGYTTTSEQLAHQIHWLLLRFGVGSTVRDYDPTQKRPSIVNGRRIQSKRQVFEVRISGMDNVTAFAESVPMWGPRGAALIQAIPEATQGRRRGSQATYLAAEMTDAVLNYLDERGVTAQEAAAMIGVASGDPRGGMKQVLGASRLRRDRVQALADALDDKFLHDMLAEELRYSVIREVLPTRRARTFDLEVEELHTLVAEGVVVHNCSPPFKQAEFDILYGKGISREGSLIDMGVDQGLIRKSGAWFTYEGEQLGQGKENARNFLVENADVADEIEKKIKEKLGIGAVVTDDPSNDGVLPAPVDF
# Mtb growth = M. tuberculosis H37Rv growth inhibitors, H37Rv strain (AID 1626); M. tuberculosis H37Rv growth inhibition; higher % means a stronger effect; one-dose inhibition, % at 10 µM; IC50 in µM for titrated hits; actives 0.95% (n = 220,000);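 active = confirmed in a dose series; inconclusive = inhibition above 80% but not taken into the dose series; inactive = below 80% or under 30% at every dose of the series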;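 also: bacteria incubated seven days before Alamar blue readout; 0% = bacteria only wells and 100% = bacteria with antibiotic wells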
# Arbovirus anti = antivirals against arbovirus infection, primary screen, cell-based, full library, 10K replicate subset | arbovirus infection cell-based antiviral screen | inhibition, % at 10 µM | actives 0.37% (n = 200,000) | AID 1251, 2008;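 active = inhibition from about 30%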;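 also: bluetongue infection of BSR cells; cell survival read as ATP light after 72 h; 0% = infected wells without compound and 100% = uninfected wells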
# YopH PTP inh = YopH tyrosine phosphatase inhibitors, primary screen, biochemical, fluorescence Ex485/Em525; inhibition, %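 (about 10 µM by stock and volumes)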; actives 0.16% (n = 140,000);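 active = inhibition of 50% or more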;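 also: controls were vehicle for no effect and minimum signal wells for full effect; inactives centre near -20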
# Mtb bLac sens = beta-lactam sensitization of Mtb H37Rv, H37Rv; M. tuberculosis H37Rv growth with meropenem, percent inhibition; hits of this screen are not shown here; inhibition, % at 25 µM; actives 0.27% (n = 330,000); AID 434955, 2010;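 active = about 74% or more and at least 40 points above the plate without the antibiotic, then above 30% in a dose series; inconclusive = first-round hits that could not be retested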;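 also: growth measured after seven days incubation then overnight dye step; 0% = bacteria only wells and 100% = bacteria with antibiotic; twin plates without the antibiotic show which effects depend on it; some results filed as inactive read as strong as hits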
# Arbovirus anti repeat = recorded beside Arbovirus anti, whose call it bears; inhibition, %; measured here: 10K subset replicate screen; many hits read low in the repeat;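 first of two repeat runs on a subset; 0% = infected and 100% = uninfected wells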
# The depositor's hits bear a star; ? = inconclusive; . = no result given. This is a subset. The share of hits here may be higher or lower than overall.
SMILES,RecA intein inh,Mtb growth,Arbovirus anti,YopH PTP inh,Mtb bLac sens,others
Cc1cccc(NC(=S)NNC(=O)c2sccc2C)c1,0.8,0%,-1,-7,-8,
CC(=O)Nc1ccc(OC(F)(F)C(F)C(F)(F)F)c(NC(C)=O)c1 (centres undefined),0.8,-13%,8,-31,-16,
CCOc1ccc(Cn2c3ccc(OC)cc3c3nc4ccccc4nc32)cc1OC,-2.4,6%,10,-24,9,
CN(C)CCN1C(=O)C(=O)/C(=C(/O)c2ccc(S(=O)(=O)N3CCOCC3)cc2)C1c1ccccc1 (centres undefined),.,2%,.,.,5,
COc1cccc(-n2c(Cn3nc(C(F)F)cc3C(F)F)n[nH]c2=S)c1,-1.1,3%,0,-23,-7,
Cc1cccc(NC(=O)c2cnn(-c3ccccc3)c2C)c1C,1.7,.,.,.,4,
CCCNC(=O)c1nn2c(C(F)(F)F)cc(-c3ccccc3)nc2c1Br,-0.3,.,.,.,-4,
CC(=O)c1ccc(OC(=O)N2CCOCC2)cc1,0.3,.,.,.,-11,
Nc1ccc(Oc2ccccc2-c2ccccc2)cc1,-0.6,.,.,.,2,
COc1cc(CN2CCC(CCC(=O)NC3CC3)CC2)cc(Cl)c1OC,-0.6,.,.,.,1,
Cc1cc(/C=N/NC(=O)c2ccc(O)cc2)c(C)n1C1CC1,-2.6,-2%,6,.,1,
CCOc1ccc(N(CC(=O)NCCSCc2ccccc2)S(C)(=O)=O)cc1,-0.6,.,.,.,-8,
O=C(NNC(=O)c1ccccc1O)c1ccc(Cl)c(S(=O)(=O)N2CCCCC2)c1,8.9,.,.,.,5,
CCCNS(=O)(=O)c1ccc(CCC(=O)N2CCCC2)cc1,0.3,-5%,6,.,-8,
O=C(Nc1ccccc1Oc1cccnc1)C1CCCN(C/C=C/c2ccc(F)cc2)C1 (centres undefined),2.8,.,.,.,12,
CN1C(=O)SC(Nc2ccc(F)cc2)C1=O (centres undefined),-0.4,-10%,2,-43,-4,
Cc1cc(C(=O)CCl)c(C)n1-c1cccc(S(=O)(=O)N2CCOCC2)c1,23,80%,-22,.,97,
O=C(c1ccc2c(c1)OCO2)C1CCCN(Cc2cccn2-c2cccnc2)C1 (centres undefined),8.4,9%,1,.,-3,
C=CCn1cc([N+](=O)[O-])nc1C,1.0,5%,2,-27,-9,
CCCCn1c(N)c(N(CCC(C)C)C(=O)CSc2nnc3ccccn23)c(=O)[nH]c1=O,-3.1,-5%,1,-33,-9,

# Some of these compounds in order of SMILES length, smallest number first.
SMILES,RecA intein inh,Mtb growth,Arbovirus anti,YopH PTP inh,Mtb bLac sens,others
Nc1ccc(Oc2ccccc2-c2ccccc2)cc1,-0.6,.,.,.,2,
CC(=O)c1ccc(OC(=O)N2CCOCC2)cc1,0.3,.,.,.,-11,
Cc1cccc(NC(=O)c2cnn(-c3ccccc3)c2C)c1C,1.7,.,.,.,4,
Cc1cc(/C=N/NC(=O)c2ccc(O)cc2)c(C)n1C1CC1,-2.6,-2%,6,.,1,
CCOc1ccc(Cn2c3ccc(OC)cc3c3nc4ccccc4nc32)cc1OC,-2.4,6%,10,-24,9,
O=C(c1ccc2c(c1)OCO2)C1CCCN(Cc2cccn2-c2cccnc2)C1 (centres undefined),8.4,9%,1,.,-3,
Cc1cc(C(=O)CCl)c(C)n1-c1cccc(S(=O)(=O)N2CCOCC2)c1,23,80%,-22,.,97,

# Following part:
SMILES,RecA intein inh,Mtb growth,Arbovirus anti,YopH PTP inh,Mtb bLac sens,others
COc1cc(C2Nc3cc(Cl)c(S(N)(=O)=O)cc3S(=O)(=O)N2)ccc1OCc1ccccc1 (centres undefined),-2.0,-2%,3,-6,12,
CC(C)[C@H](NC(=O)[C@@H]1Cc2ccccc2CN1C(=O)OC(C)(C)C)C(=O)NCc1ccco1,6.1,.,.,.,-5,
O=C(c1ccco1)n1nc(-c2ccccc2)nc1NCc1ccco1,-1.2,-7%,-6,-25,?,
CCOc1ccc(/C=C2\SC(=S)N(CCC(=O)Nc3cccc(C(=O)O)c3)C2=O)cc1,6.5,.,.,.,5,
Nc1nc(SCC(=O)c2c(N)n(Cc3ccccc3)c(=O)[nH]c2=O)n[nH]1,2.1,-2%,.,.,-10,
Cc1cccn2c(=O)c(C=O)c(Sc3ncccn3)nc12,-6.8,0%,5,.,-8,
COc1ccc(C(CNC(=O)c2ccc(C)c(S(=O)(=O)N3CCCCC3)c2)N(C)C)cc1OC (centres undefined),-3.1,5%,11,.,-7,
CCN(CCNC(=O)C1CCN(S(=O)(=O)CC)CC1)c1ccccc1,-6.6,9%,4,6,2,
CC12C(=O)N(c3cccc4cccnc34)C(=O)C1C1C=CC2C1 (centres undefined),0.1,-4%,4,-35,1,Arbovirus anti repeat=-2
O=C(CSc1nnc(-c2ccncc2)o1)N1CCc2ccccc2C1,1.8,?,5,.,100,
CCOC(=O)Nc1ccc(NC(=O)c2ccccc2F)cc1,0.9,7%,0,.,1,
NC(=O)c1ccccc1NC(=O)CN1CCN(Cc2ccccc2)CC1,-1.8,.,.,.,-10,
Cc1cccc(NC(=S)NCc2ccccc2)c1C,-0.5,.,.,.,0,
O=C(NC1CC1)C1CCC(=O)N1C1CCCC1 (centres undefined),-1.4,-5%,5,-18,3,
COCCNc1nc2ccccc2n1CC(=O)c1ccc(OC)c(OC)c1,-2.1,.,.,.,-11,
COc1ccccc1C(=O)NCCCNC(=O)c1cccnc1,3.2,.,.,.,-1,
CN1CCCN(C(c2ccccc2)c2ccc(Cl)cc2)CC1 (centres undefined),2.3,-2%,-19,-7,1,
CCC(C)Nc1nc2c(c(=O)[nH]c(=O)n2C)n1CCC(C)C (centres undefined),0.0,-6%,0,-22,-13,
Cc1ccc(-c2n[nH]c(=S)n2/N=C\c2ccco2)cc1,2.8,10%,-7,-34,2,
CCc1nc2ccc(C(=O)O)cc2nc1CC,-2.5,0%,12,-26,-2,
Cc1cccc(C(=O)Nc2cccc(C(=O)N/N=C/c3cccc(C)n3)c2)c1,0.4,.,.,.,-3,
COc1ccc(CCNC(=O)CSc2nc(N)c(C#N)c(-c3cccs3)c2C#N)cc1OC,3.7,0%,-3,-50,-4,
Cc1ccc(C)c(S(=O)(=O)N2CCCC2CNC(=O)C(=O)NCCc2ccco2)c1 (centres undefined),-0.5,.,.,.,-6,
Cc1ccc(C(=O)Nc2cccc(N(C)S(C)(=O)=O)c2)cc1S(=O)(=O)Nc1ccccc1,3.6,-5%,5,-32,12,
CCCCCCNC(=O)C(C#N)c1nc2ccccc2nc1N1CCOCC1 (centres undefined),-22,0%,1,-26,2,
N#Cc1c(NC(=O)C2CC(Cl)=CCC2C(=O)O)sc2c1CCCC2 (centres undefined),1.6,-5%,14,.,-2,
c1ccc(-c2csc3ncnc(N4CCOCC4)c23)cc1,1.0,-5%,12,.,-1,
Cc1ccccc1OCCCC(=O)Nc1nccs1,3.0,5%,4,0,3,
O=C(O)CCC(=O)N1CCc2cc(S(=O)(=O)Nc3ccc4c(c3)OCCO4)ccc21,1.8,-9%,4,-35,-5,Arbovirus anti repeat=7
CC(C)CCn1c(Oc2ccccc2Cl)nc2c1c(=O)n(C)c(=O)n2C,4.8,17%,-22,-7,55,
O=[N+]([O-])c1cccc(S(=O)(=O)NCc2ccncc2)c1,0.8,.,.,.,0,
CC(C)c1onc(C(=O)NC2CCCC2)c1[N+](=O)[O-],-1.9,9%,8,.,-3,
C[C@@H]1CC=C[C@H]2[C@H]1C(=O)N(Cc1ccccc1)[C@H]2c1ccc(Br)cc1F,4.8,3%,.,.,-3,
N#Cc1c(Cl)cccc1N1CCC(C(N)=O)CC1,0.5,4%,.,.,-17,
O=C(Nc1ccc2c(c1)N(S(=O)(=O)c1cccs1)CCC2)c1c(F)cccc1Cl,8.8,.,.,.,19,
CC1=Nc2nc(N3CCCCCC3)c(C#N)c3c4c(nc(c23)N1)N(c1ccc2ccccc2c1)C(=O)C4,3.9,.,.,.,14,
Cc1cccc(NC(=O)C2CCCN(S(=O)(=O)c3c(C)nn(C)c3C)C2)n1 (centres undefined),0.4,-18%,1,-23,-5,
CN(c1ccc(C(=O)NCCSC(C)(C)C)cc1)S(=O)(=O)c1ccccc1,1.6,5%,2,.,-4,
Nn1c(SCC(=O)NC(=O)NCc2ccccc2)nnc1C1CC1,-0.2,-3%,7,-39,-3,
O=C(NCc1ccco1)c1sc2cccc(F)c2c1Cl,1.8,5%,0,-23,4,

# Random excerpt: 6 compounds from above, in no set order.
SMILES,RecA intein inh,Mtb growth,Arbovirus anti,YopH PTP inh,Mtb bLac sens,others
Cc1cccn2c(=O)c(C=O)c(Sc3ncccn3)nc12,-6.8,0%,5,.,-8,
Cc1cc(C(=O)CCl)c(C)n1-c1cccc(S(=O)(=O)N2CCOCC2)c1,23,80%,-22,.,97,
COc1cc(C2Nc3cc(Cl)c(S(N)(=O)=O)cc3S(=O)(=O)N2)ccc1OCc1ccccc1 (centres undefined),-2.0,-2%,3,-6,12,
CCc1nc2ccc(C(=O)O)cc2nc1CC,-2.5,0%,12,-26,-2,
O=C(c1ccc2c(c1)OCO2)C1CCCN(Cc2cccn2-c2cccnc2)C1 (centres undefined),8.4,9%,1,.,-3,
COc1ccc(CCNC(=O)CSc2nc(N)c(C#N)c(-c3cccs3)c2C#N)cc1OC,3.7,0%,-3,-50,-4,

# The listing picks up, repeating the 3 entries before the break.
SMILES,RecA intein inh,Mtb growth,Arbovirus anti,YopH PTP inh,Mtb bLac sens,others
CN(c1ccc(C(=O)NCCSC(C)(C)C)cc1)S(=O)(=O)c1ccccc1,1.6,5%,2,.,-4,
Nn1c(SCC(=O)NC(=O)NCc2ccccc2)nnc1C1CC1,-0.2,-3%,7,-39,-3,
O=C(NCc1ccco1)c1sc2cccc(F)c2c1Cl,1.8,5%,0,-23,4,
Cc1ccc2c(c1)c(N=NC(N)=O)c(O)n2C,-0.8,4%,0,.,-3,
O=C(Cc1ccc([N+](=O)[O-])cc1)N/N=C/c1ccco1,2.6,5%,3,.,-3,
Cc1cccn2cc(-c3ccc(S(=O)(=O)N4CCOCC4)cc3)nc12,2.1,-8%,-1,-34,-20,Arbovirus anti repeat=-6
CC1(C)NC(=O)N(CC(O)Cn2nnc3ccccc32)C1=O (centres undefined),-3.1,-2%,-4,-21,18,
Cc1ccc(C(c2cc(Br)ccc2O)N2CCSCC2)cc1 (centres undefined),7.6,.,.,.,-5,
CCOc1ccc(S(=O)(=O)Nc2cccc(N(C)S(C)(=O)=O)c2)cc1,-0.1,-4%,9,1,-1,
COc1ccc(Nc2cc(C)nc(N)n2)cc1,1.5,-9%,.,.,-4,
Cc1ccc(S(=O)(=O)N2CCN(c3ccc([N+](=O)[O-])cn3)CC2)cc1,-0.7,-3%,.,.,-9,
O=C(Nc1ccc2c(c1)nc1n2CCN(Cc2ccccc2)C1)NC1CCCCC1,13,-5%,-17,-2,-5,
CCCOc1cccc(-c2nnc(NC(=O)c3ccco3)s2)c1,-2.4,.,.,.,-2,
COCCOC(=O)C1=C(C)N=C2SCCC(=O)N2C1c1ccc(C(=O)OC)cc1 (centres undefined),0.6,4%,6,9,-12,
O=C(Cn1cnc2ccccc2c1=O)NCCC(=O)N1CCC2(CC1)OCCO2,.,-8%,-1,27,-4,
Cn1c(CN2CCOCC2)nc2cc(NC(=O)COc3ccc([N+](=O)[O-])cc3)ccc21,-0.5,-3%,8,.,1,
C/C=C1\COC(C(=O)NCc2cccc(OC)c2OC)(C(F)(F)F)C=C1C=C1CCCCC1 (centres undefined),4.8,-5%,.,.,-15,
CN1C2C=C3C(C#N)=C(N)C(C#N)(C#N)[C@@H](c4cccs4)C3C1CC2 (some centres undefined),-2.1,-10%,3,20,5,
CCOC(=O)c1c(NC(=O)c2ccnn2C)sc(C)c1C,0.7,-2%,-4,7,10,

# Compound activity as filed in PubChem BioAssay.
